Mtb bLac sens: beta-lactam sensitization of Mtb H37Rv | M. tuberculosis H37Rv growth with meropenem, percent inhibition; hits of this screen are not shown here | inhibition, % at 25 µM | 330,000 compounds, 0.27% hits | AID 434955;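 active means about 74% or more and at least 40 points above the plate without the antibiotic, then above 30% in a dose series; inconclusive means first-round hits that could not be retested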;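 further: growth measured after seven days incubation then overnight dye step; 0% = bacteria only wells and 100% = bacteria with antibiotic; twin plates without the antibiotic show which effects depend on it; some results filed as inactive read as strong as hits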
* marks the source's active call; other numbers are inactive results; ? = inconclusive. Some of the compounds tested; count on the stated rates, not on these rows.

A first look (5 entries):
SMILES | Mtb bLac sens
O=C1C=CN(Cc2ccccc2)C(c2ccccc2)C1 (stereo not given) | -10
O=C(O)c1c2c(nc3ccccc13)/C(=C/c1ccccc1[N+](=O)[O-])CCC2 | -1
Cc1csc(CNc2ncnc3ccc(-c4ccccc4Cl)cc23)c1 | 10
CCCCN(C(=O)C(CCSC)N1C(=O)c2ccccc2C1=O)c1c(N)n(CCC)c(=O)[nH]c1=O (stereo not given) | -3
Cc1ccccc1NC(=O)C(C)OC(=O)C1CC(=O)N(Cc2ccco2)C1 (stereo not given) | -2

The whole of this part, repeating the preview:
SMILES | Mtb bLac sens
O=C1C=CN(Cc2ccccc2)C(c2ccccc2)C1 (stereo not given) | -10
O=C(O)c1c2c(nc3ccccc13)/C(=C/c1ccccc1[N+](=O)[O-])CCC2 | -1
Cc1csc(CNc2ncnc3ccc(-c4ccccc4Cl)cc23)c1 | 10
CCCCN(C(=O)C(CCSC)N1C(=O)c2ccccc2C1=O)c1c(N)n(CCC)c(=O)[nH]c1=O (stereo not given) | -3
Cc1ccccc1NC(=O)C(C)OC(=O)C1CC(=O)N(Cc2ccco2)C1 (stereo not given) | -2
Cc1noc(C)c1NC(=O)N(C)C[C@H]1Oc2ccc(NC(=O)C3CCCCC3)cc2C(=O)N([C@H](C)CO)C[C@@H]1C | 3
CCCN(CC(=O)Nc1ccccc1OC)C(=O)c1ccc(S(=O)(=O)NCc2ccco2)cc1 | -1
O=C(CCNS(=O)(=O)c1ccccc1C(F)(F)F)NCCCc1ccccc1 | -5
COc1ccccc1NS(=O)(=O)c1ccc(C(=O)NCc2ccc(S(N)(=O)=O)cc2)cc1 | 4
CCCCn1c(N)c(N(CCOC)C(=O)COC(=O)CCOc2ccc(C)cc2)c(=O)[nH]c1=O | 9
Cc1cc2oc(=O)cc(CN3CCOCC3)c2cc1C(C)C | 1
COc1ccc(NC(=O)CCN2CCN(C/C=C/c3ccccc3)CC2)cc1 | 2
COc1ccc(C(CNC(=O)COc2cccc(C(F)(F)F)c2)N2CCCC2)cc1 (stereo not given) | 3
COc1ccccc1C(=O)NC(=S)Nc1ccccc1N1CCCC1 | ?
Cc1ccc(-c2nnc(SCC(=O)NC3CCCC3)n2N)cc1 | 1
CSc1ncccc1C(=O)OCC(=O)N1CC(=O)Nc2ccccc21 | -5
O=C1NC(=O)C(=O)N1 | -9
C=CCNc1nc(C(=O)OCC(=O)Nc2ccccc2C(F)(F)F)cs1 | 1
O=C(C1Cc2ccccc2CN1S(=O)(=O)c1ccccc1[N+](=O)[O-])N1CCOCC1 (stereo not given) | -5
COc1ccc(S(=O)(=O)N(C)C[C@H]2Oc3ccc(NC(=O)C4CCCCC4)cc3C(=O)N([C@H](C)CO)C[C@@H]2C)cc1 | 6
O=C(Nc1ccc(N2CCOCC2)cc1N1CCOCC1)c1ccccc1 | -2
CN(Cc1ccccc1)C(=O)c1cccc(NC(=O)Cc2ccc([N+](=O)[O-])cc2)c1 | 61
COc1ccccc1/C=C/C(=O)OCC(=O)N1CCc2ccccc21 | 2
Cc1ccc(S(=O)(=O)N2[C@@H](c3ccc(C(C)(C)C)cc3)C(C(=O)O)=CC[C@H]2c2cccs2)cc1 | -1
O=C(CN1C(=O)NC2(CCCCCC2)C1=O)NCc1ccccc1Cl | 10
(continued)
SMILES | Mtb bLac sens
CN(CC(=O)Nc1ccccc1Cl)C(=O)Cn1cnc2ccc(Cl)cc2c1=O | -3
COC(=O)c1c(C)[nH]c(C(=O)C(C)OC(=O)c2ccco2)c1C (stereo not given) | -7
COc1cccc(C(=O)NC2CC(C)(C)NC(C)(C)C2)c1OC | -18
CC(=O)C[C@H](O)CC(=O)[C@H]1OC(=O)CC/C=C\Cc2ccccc21 | 6
COc1cc2c(-c3ccc4c(c3)OCO4)c(-c3ccsc3)oc(=O)c2cc1OC | 13
CC1(C)CC2C1CCC1(O)CC2(C)CCC1N(O)c1ccc(C(=O)NCCO)cn1 (stereo not given) | 0
COc1ccc(NC(=O)N(C)C[C@H]2Oc3c(NC(=O)Nc4ccccc4)cccc3C(=O)N([C@H](C)CO)C[C@@H]2C)cc1 | 1
CCn1c(SC(C)C(=O)NCC2CCCO2)nc2ccccc21 (stereo not given) | -6
Cc1cc(C(=O)OCC(=O)Nc2ccccc2C(F)(F)F)on1 | 5
O=C1C=CN2CCCCC2CC1 (stereo not given) | -9
Cc1ccc(C(=O)NNC(=O)c2ccc(NS(=O)(=O)c3cccs3)cc2)o1 | 7
OCC[C@H]1C[C@H](O)[C@@H](O)[C@]2(OCc3ccccc32)O1 | -11
O=C(Cc1ccc([N+](=O)[O-])cc1)NCc1cccnc1 | -6
CCOc1ccc(NC(=O)c2ccc3c(c2)CCN3S(C)(=O)=O)cc1 | -9
O=C(NN1CCOCC1)c1c(-c2ccccc2)sc2ccccc12 | 1
Cc1cc(CC(=O)O)n(C)c1C(=O)c1ccc(Cl)cc1 | 4
Cc1cc(C)cc(C(=O)NCC(=O)N2CCC(C(N)=O)CC2)c1 | -2
C[C@]12CC[C@H](O)CC1=CCC1C2CC[C@@]2(C)C1C[C@@H]1CC(=O)O[C@@H]12 (stereo not given in full) | -2
CC(C)NS(=O)(=O)c1ccc(CCC(=O)NCc2ccccn2)cc1 | 3
CC(C)(C)OC(=O)C[C@H]1C/C=C\C[C@@H](CC(=O)N[C@@H](CO)Cc2ccccc2)C(=O)N2CCC[C@H]2COC1=O | 1
NNC(=O)c1cc2cc(Oc3ccccc3)ccc2[nH]1 | -3
Cc1ccc(S(=O)(=O)N2[C@@H](c3cccc(Cl)c3)C(C(=O)O)=CC[C@H]2c2cccs2)cc1 | 0
O=C1CN=C(c2ccccc2)c2cc([N+](=O)[O-])ccc2N1 | -3
O=C(COC(=O)c1ccc(O)cc1)Nc1cc(C(F)(F)F)ccc1N1CCOCC1 | -2
CCSc1nnc(NC(=O)c2ccc(F)c(S(=O)(=O)N3CCOCC3)c2)s1 | 4

A different layout for some results above:
SMILES	Mtb bLac sens
O=C(COC(=O)c1ccc(O)cc1)Nc1cc(C(F)(F)F)ccc1N1CCOCC1	-2
CC(C)NS(=O)(=O)c1ccc(CCC(=O)NCc2ccccn2)cc1	3
Cc1cc(C(=O)OCC(=O)Nc2ccccc2C(F)(F)F)on1	5
Cc1noc(C)c1NC(=O)N(C)C[C@H]1Oc2ccc(NC(=O)C3CCCCC3)cc2C(=O)N([C@H](C)CO)C[C@@H]1C	3
O=C1CN=C(c2ccccc2)c2cc([N+](=O)[O-])ccc2N1	-3
O=C(CCNS(=O)(=O)c1ccccc1C(F)(F)F)NCCCc1ccccc1	-5

More results follow.
SMILES | Mtb bLac sens
COc1cccc(NC(=O)c2c(F)cccc2F)c1 | -5
Cc1cccc(C(=O)N[C@H](C(=O)NCc2cccs2)C(C)C)c1 | -2
Cc1ccc([C@@H]2CC=C(C(=O)O)[C@H](c3ccc(F)cc3)N2S(=O)(=O)c2ccc(C)cc2)cc1 | -1
COCCN(CC(=O)Nc1cccc(C)c1C)C(=O)Cc1ccsc1 | -4
COc1cc(/C=C/C(=O)NCc2nc3ccccc3[nH]2)cc(OC)c1OC | 1
CN(c1ccccc1)S(=O)(=O)c1cc(C(=O)NCCCn2ccnc2)ccc1Cl | 1
CC[C@]12CC[C@H](O)CC1=CCC1C2CC[C@]2(C)C(=O)CCC12 (stereo not given in full) | -5
O=C(COC(=O)c1cc(S(=O)(=O)N2CCOCC2)ccc1Cl)NCc1ccc2c(c1)OCO2 | -5
COc1ccc(C(=O)Nc2ccc(Cl)cc2F)cc1S(=O)(=O)N1CCCC1 | 1
CC(C)CN(C(=O)CN1C(=O)C2CCCCC2C1=O)c1c(N)n(Cc2ccccc2)c(=O)[nH]c1=O (stereo not given) | -7
CCCc1cc(=O)oc2cc(OCC(=O)N3C[C@H]4C[C@@H](C3)c3cccc(=O)n3C4)c(Cl)cc12 | -7
CN(Cc1ccco1)c1ncnc2ccc(-c3ccoc3)cc12 | 54
C[C@]12C(=O)N(c3cccc(F)c3)C(=O)N1[C@H]1c3ccccc3OC[C@@H]1[C@H]2c1ccccc1 | 10
C[C@H](CO)N1C[C@H](C)[C@@H](CN(C)S(=O)(=O)c2ccccc2)Oc2ccc(NC(=O)Cn3cnnn3)cc2C1=O | 0
O=C(CSc1nc2ccccc2o1)NC1CCS(=O)(=O)C1 (stereo not given) | -5
O=C1CCc2cc(S(=O)(=O)Nc3ccc(F)cc3)ccc2N1 | 0
O=C1NC(Cc2ccccc2)c2nc3ccccc3c(=O)n2-c2cc(Cl)ccc21 (stereo not given) | -5
COc1ccc([C@H]2CC(=O)C=C(c3ccc(Cl)c(C(F)(F)F)c3)C2)cc1OC | 19
COc1ccccc1S(=O)(=O)N1CCN(S(=O)(=O)c2cccs2)CC1 | -7
NC(=O)c1ccc(NC(=O)CSc2nc3ccccc3c(=O)n2CCCN2CCOCC2)cc1 | -8
Cc1nccn1CCOc1ccc(Cl)cc1 | -9
O=[N+]([O-])c1ccc(CN2CCN(c3ccc(Cl)cc3)CC2)o1 | 100
CCOC(=O)/C=C1/SCC(=O)N1CC(=O)Nc1cccc(F)c1 | -1
Cc1ccc2c(c1)sc1nc(=O)ccn12 | -12
NS(=O)(=O)c1ccc(NC(=O)COC(=O)c2ncc(Cl)c(Cl)c2Cl)cc1 | 5
(cont.)
SMILES | Mtb bLac sens
CN(C)c1cccc(C(=O)OCC(=O)NC(=O)NCc2ccccc2)c1 | -10
Cc1ccc(S(=O)(=O)N2CCN(C(=O)COC(=O)COc3cccc(C(F)(F)F)c3)CC2)c(C)c1 | 0
COc1ccc(-c2c(-c3cc(OC)cc(OC)c3)n(C)c3ccc(Br)cc23)cc1 | -5
CC(=O)c1ccc(NC(=O)Cc2ccsc2)cc1 | -6
Cc1cc(C(=O)CSc2nnnn2C)c(C)n1Cc1ccco1 | -8
O=C(NCC(c1ccco1)N1CCCC1)c1cccc(S(=O)(=O)Nc2ccc(F)cc2)c1 (stereo not given) | -6
COc1ccc(-c2coc3cc(O[C@@H]4O[C@H](CO)[C@@H](O)[C@H](O)[C@H]4O)c(OC)cc3c2=O)cc1 | 0
COc1ccc2sc(-c3ccccc3OC)c(-c3ccc(OC)nc3)c2c1 | 24
C[C@]12C(=O)N(c3ccccc3)C(=O)N1[C@H]1c3ccccc3OC[C@@H]1[C@H]2c1ccccc1 | 39
COc1ccc(-c2cc(C(=O)N3CCN(c4ccccc4O)CC3)c3ccccc3n2)cc1 | 11
CN(Cc1ccccc1)C(=O)CSc1nc2ccccc2[nH]1 | -5
CCc1noc(C)c1C(=O)Nc1ccc(-c2nnc3n2CCCCC3)cc1 | -4
O=C(O)Cn1nnc(COc2ccccc2)n1 | -3
COc1ccc(-c2cc3cc4c(cc3cn2)OCO4)cc1 | 1
COc1ccccc1NS(=O)(=O)c1cccc(C(=O)NNC(=O)c2ccc(=O)[nH]c2)c1 | -5
COc1ccc(C2=CC(=O)C[C@H](c3ccc(F)cc3)C2)c(F)c1F | 87
Cn1cccc1C(=O)NNC(=O)COc1ccc(C#N)cc1 | -2
CC(=O)Nc1cccc(C(=O)OC(C)C(=O)NC(=O)NC2CCCCC2)c1 (stereo not given) | -5
O=C(CSc1ccccc1)OCC(=O)N1CCN(C(=O)c2ccco2)CC1 | 2
CC(OC(=O)c1cc[n+]([O-])cc1)C(=O)Nc1ccc(C(N)=O)cc1 (stereo not given) | -2
COc1cc(OC)cc(C(=O)NCC(=O)N2CCN(Cc3ccccc3)CC2)c1 | 1
CCOc1ccccc1C(=O)NCC(=O)NCc1ccc(S(=O)(=O)N2CCOCC2)cc1 | -7
CN(C)S(=O)(=O)n1cnc([C@@H]2[C@@H]3C(=O)OC[C@@H]3C[C@]23N=CN(Cc2ccccc2)C3=O)c1 | -7
CC(Sc1ccc(S(=O)(=O)N2CCOCC2)cn1)C(=O)Nc1ccc(Cl)cc1Cl (stereo not given) | -9
NC(=O)NC(Cc1ccccc1)C(=O)NNC(=O)COc1ccccc1Cl (stereo not given) | -5
Next section
SMILES | Mtb bLac sens
COc1ccc(C(=O)NNC(=O)Cc2coc3cc(OC)ccc23)cc1 | -1
CC(=O)c1ccc(N2CCN(C(=O)c3ccc4[nH]c(C)c(C)c4c3)CC2)cc1 | -2
CCc1cccc(NC(=O)C2CCN(c3ncnc4sc(C)c(C)c34)CC2)c1 | 38
Cc1ccc(C2=CC(=O)C[C@H](c3ccc4c(c3)OCO4)C2)cc1 | 46
CCOc1ccc(NC(=O)COc2ccc(C(=O)NCc3cccc(OC)c3)cc2OC)cc1 | -7
CN(c1ccccc1)S(=O)(=O)c1cccc(NC(=O)c2nn(C)c(=O)c3ccccc23)c1 | 8
CC1=CC(=O)C2=C(C)C[C@H](O)[C@@H]3[C@H](OC(=O)[C@H]3C)[C@@H]12 | 7
O=C(C1CN(C(=O)c2cc3cc(Cl)ccc3o2)c2ccccc2O1)N1CCCCC1 (stereo not given) | 6
N#Cc1ccsc1NC(=O)CSc1nncs1 | -8
O=C(CSc1nc2nn(-c3ccccc3)c(=O)c-2c2n1CCCCC2)Nc1ccc(F)cc1F | -1
Cc1ccc(NS(=O)(=O)c2ccc3c(c2)CCC(=O)N3)cc1 | -6
Oc1ccccc1CN1CCN(C(O)(c2ccccc2)c2ccccc2)CC1 | 2
O=S(=O)(c1ccc2c(c1)C(O)c1ccccc1CC2)C(F)(F)F (stereo not given) | 7
O=C1CC(C(=O)N2CCc3ccccc32)CN1c1cccc(C(F)(F)F)c1 (stereo not given) | -4
CC(C)(C)OC(=O)C[C@@H]1C/C=C\C[C@H](CC(=O)N(CCO)Cc2ccccc2)C(=O)NC[C@H](c2ccccc2)OC1=O | -4
O=C1C=C(c2ccc3c(c2)OCO3)C[C@@H](c2ccc(Cl)cc2)C1 | 5
Cc1ccc(Cl)cc1NC(=O)COC(=O)CSc1ccccc1 | 3
COc1ccc(/C=C/C(=O)O/N=C(\N)c2ccccn2)cc1OC | 69
COC(=O)C1=C(c2ccc(F)cc2OCc2ccccc2)C[C@@H]2CC[C@H]1N2C(=O)NCCNC(C)=O | 2
O=[N+]([O-])c1ccc(Cl)c(S(=O)(=O)Nc2ccc3cn[nH]c3c2)c1 | -2
O=C(Nc1ccc2[nH]c(=O)[nH]c2c1)c1ccc([N+](=O)[O-])o1 | 84
COc1ccc(NS(=O)(=O)c2ccc(O)c(NS(=O)(=O)c3ccc(NC(C)=O)cc3)c2)cc1 | -3
